Menin-MLL FL inh = qHTS Assay for Inhibitors Targeting the Menin-MLL Interaction in MLL Related Leukemias: Competition With Fluorescein Labeled MLL-derived Peptide; Fluorescence polarization, fluorescein-MLL peptide displacement from menin; 290,000 tested, under 10 active; FP activity change, % at 61.4 µM; inconclusive = falling polarisation curve, or a change in total fluorescence; inactive = total fluorescence flat and polarisation flat or rising; no compound was filed as active; the % refers to the polarisation; negative = inhibition;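 note: % of control where 0% means no effect; inhibitors lower the polarisation; unlabelled MLL peptide was the positive control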
TRPML1 ag = qHTS for Agonists of the Human Mucolipin Transient Receptor Potential 1 (TRPML1) | actives 0.12% (n = 410,000) | TRPML1-expressing cells, Ca2+ dye fluorescence, FDSS; host cell line not named in the record; reference of the full effect not given here | AID 624414, 2012 | activation, % (test concentration not listed) | Mucolipin-1 (Homo sapiens), Q9GZU1; in the data active = activation above about 50%; inconclusive = about 30% to 50%; inactive = below about 30%; note: 0% is about no effect; the text of the record puts the active cut at 80%
Target sequence (Q9GZU1 whole entry, looked up): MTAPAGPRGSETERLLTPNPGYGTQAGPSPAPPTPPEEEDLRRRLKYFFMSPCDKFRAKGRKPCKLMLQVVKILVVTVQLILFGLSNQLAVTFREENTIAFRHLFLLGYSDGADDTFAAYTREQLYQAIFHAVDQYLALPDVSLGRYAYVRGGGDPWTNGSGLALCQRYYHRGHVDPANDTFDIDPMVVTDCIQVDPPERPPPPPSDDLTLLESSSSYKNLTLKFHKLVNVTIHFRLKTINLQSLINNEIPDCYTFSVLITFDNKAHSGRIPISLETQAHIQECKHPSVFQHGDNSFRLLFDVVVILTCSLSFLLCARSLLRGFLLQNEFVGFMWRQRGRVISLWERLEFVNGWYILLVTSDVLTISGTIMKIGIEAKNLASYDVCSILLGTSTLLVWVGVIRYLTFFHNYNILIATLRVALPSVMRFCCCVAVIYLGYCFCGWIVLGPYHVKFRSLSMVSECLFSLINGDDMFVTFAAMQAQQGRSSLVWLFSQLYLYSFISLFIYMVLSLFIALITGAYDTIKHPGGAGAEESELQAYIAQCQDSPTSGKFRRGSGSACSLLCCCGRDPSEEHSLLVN
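Kinetic FDSS Ca2+ read in Tet-induced TRPML1-DL cells (ABD Ca8 dye plus quencher, 45-90 min RT loading): baseline, then compound, then 110 s agonist window; EC80 agonist 54-4 at 4uM final added afterwards for a 110 s antagonist window.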
ClpP mod = qHTS Assay for Activators of ClpP | actives 1.9% (n = 340,000) | ATP-dependent Clp protease proteolytic subunit (Bacillus subtilis (strain 168)), P80244 | purified B. subtilis ClpP, FRET peptide cleavage, 20 min | Potency, µM (highest dose often 57.5 µM), for inactives: top-dose activity change, negative = active; active = well fitted falling curve with a large enough effect; inconclusive = small, poorly fitted or top-dose-only effect; inactive = no such curve, though single readings can be large or run the other way; note: potency is the fitted concentration of half-maximal effect; the source files actives as falling curves though it sought activators and does not explain the sign; nearly all actives have a fitted effect of over 65% in size; many hits overshoot -100%
Target sequence (P80244 whole entry, looked up): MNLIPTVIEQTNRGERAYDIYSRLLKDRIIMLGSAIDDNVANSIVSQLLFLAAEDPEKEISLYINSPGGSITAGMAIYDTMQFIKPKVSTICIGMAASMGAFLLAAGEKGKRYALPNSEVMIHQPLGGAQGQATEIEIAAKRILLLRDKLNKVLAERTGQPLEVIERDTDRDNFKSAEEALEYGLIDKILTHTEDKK
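Buffer: 100 mM Tris/HCl pH8, 100 mM KCl, 0.05% low protease BSA, 2.5% glycerol, 0.01% Tween-20. ClpP 10 microg/mL final; 20 min RT; delta FRET normalized to ADEP and DMSO controls.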
gsp antagonist = qHTS for Antagonists of gsp, the Etiologic Mutation Responsible for Fibrous Dysplasia/McCune-Albright Syndrome: qHTS; Potency, µM (top dose mostly 76.9 µM), for inactives: at the top dose activity change, negative = inhibition, hits mostly inhibitors; actives 0.4% (n = 340,000); AID 624288, 2012; gsp-mutant cells, cAMP HTRF, 30 min; control for the full effect not named in the record; active = falling curve of any shape with a large fitted effect; inconclusive = falling curve, mostly with a smaller effect; inactive = flat or rising curve; cell line not stated here;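 note: intracellular cAMP measured with PDE inhibitor Ro 20-1724 present during compound exposure; potency is the fitted concentration of half-maximal effect; % is set by controls: 0 for no effect and ±100 for the full control effect; nearly all actives have a fitted effect of over 65% in size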
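Measurement of cellular cAMP by homogeneous time-resolved fluorescence following a 30 min compound exposure at 37C. The PDE inhibitor […] was present throughout; the assay buffer was DPBS with 0.05% BSA and 0.005% Tween 20.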
TRPML1 inh = qHTS for Inhibitors of the Human Mucolipin Transient Receptor Potential 1 (TRPML1) | Mucolipin-1 (Homo sapiens), Q9GZU1 | TRPML1-inducible cells, Ca2+ dye fluorescence, FDSS; stronger effect = lower value; inhibition of EC80 agonist-evoked calcium signal | activity change, negative = inhibition, % (no concentration beside the values) | actives 0.02% (n = 390,000) | AID 624415, 2012; in the data active means activity change below about -50%; inconclusive means about -30% to -50%; inactive means above about -30%;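 note: stimulus is agonist 54-4 at its EC80 concentration; % is set by controls: 0 for no effect and ±100 for the full control effect; compound concentration not given in the record; the text of the record puts the active cut at -80%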
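Calcium fluorescence in TRPML1-DL cells induced overnight with Tet: a 110 s read after compound pin addition, then a 110 s antagonist read after challenge with 54-4 at 4 uM final (EC80).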
gsp ag = qHTS for Agonist of gsp, the Etiologic Mutation Responsible for Fibrous Dysplasia/McCune-Albright Syndrome: qHTS | gsp mutant cells, cAMP HTRF, 30 min; control for the full effect not named in the record | Potency, µM (doses to about 76.9 µM), without a hit: at the top dose activation (cAMP increase), actives largely listed as activators | actives 0.13% (n = 340,000) | AID 624287, 2012; active = well fitted activation curve with a large enough effect; inconclusive = small, poorly fitted or top-dose-only effect, or another doubt; inactive = no such curve, though single readings can be large or run the other way; cell line not stated here;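 note: phosphodiesterase inhibitor Ro 20-1724 added with compounds to block cAMP breakdown; potency is the fitted concentration of half-maximal effect; nearly all actives have a fitted effect of over 60% in size; about a fifth of the inactives were tested at one dose only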
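Cells in DMEM/10% FBS with G418 were pretreated with compounds in DMSO plus […] (300 uM stock) for 30 min at 37C. cAMP was measured by HTRF (cAMP-d2 plus anti-cAMP antibody-K) after 30 min at room temperature.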
Numbers without * were called inactive; u = inconclusive; x = not tested or not shown; [ ] = another dose, or the depositor's remark.

SMILES | Menin-MLL FL inh | TRPML1 ag | ClpP mod | gsp antagonist | TRPML1 inh | gsp ag
Cc1nnc2n(-c3ccccc3)c(=O)c3c4c(sc3n12)COC(C(C)C)C4 (stereo not drawn) | 2.4 | 2.0 | -1.4% | -13% | -7 | 19%
CC(C)N(C(=O)Cn1c(-c2cccnc2)ccc(C#N)c1=O)C(C)C | -0.7 | 1.2 | -1.3% | -3% | 12 | -49%[inhibitor]
COc1ccccc1OCc1cc(-c2ccccc2)no1 | -0.8 | 2.1 | x | -12% | 1 | -5%
Cc1cnc(NC(=O)CSc2nc3ccccc3c(=O)[nH]2)s1 | 1.2 | -0.2 | 0.7% | 8% | -7 | 0%
CCNC(=O)C1(C)CCCN(C(=O)c2ccccc2Br)C1 (stereo not drawn) | x | 0.1 | 0.5% | x | -4 | x
O=C(Oc1ccc(Br)cc1)c1cccnc1 | 7.1 | -1.6 | -0.3% | 12% | -8 | -7%[15.4 µM]
Nc1ccc2nc(-c3ccccn3)[nH]c2c1 | 4.2 | 1.5 | 32µM* | -22% | 4 | 13%
CC(C)Oc1ccc(Cc2c(O)nc(NCCCN(C)C)[nH]c2=O)cc1 | -3.4 | -0.7 | -0.7% | 1% | -10 | -18%
O=C(COC(=O)c1ccccc1OCc1ccccc1Cl)NCC1CCCO1 (stereo not drawn) | x | 0.4 | -5.4% | -7% | 12 | -7%
CCOC(=O)c1cccc(NC(=O)CCOc2ccccc2)c1 | 2.5 | -0.5 | x | 0% | -3 | 5%[15.4 µM]
Cc1cc(NC(=O)CSCCc2ccncc2)no1 | 2.2 | -0.4 | 0.9% | 2% | 12 | -9%
Cc1cccc(OCC(=O)Nc2cc(NC(=O)COc3cccc(C)c3)cc(C(=O)O)c2)c1 | -5.7 | -0.9 | -9.3% | 2% | 22 | -11%[15.4 µM]
O=[N+]([O-])c1cc(NS(=O)(=O)c2ccc(Cl)nc2)ccc1Cl | x | -0.6 | u | -21% | -1 | -1%
CCCCn1c(SCC(=O)Nc2cccc(OC)c2)nc2ccc(N3CCOCC3)cc2c1=O | 1.4 | 0.3 | -11% | -16% | -3 | 5%
NC(=O)CN(c1ccccc1)C1SC(=O)N(Cc2ccccc2)C1=O (stereo not drawn) | 3.7 | -0.1 | -1.1% | 8% | -9 | -31%[inhibitor]
NC(=O)c1oc2ccc(Cl)cc2c1NC(=O)CN1CCOCC1 | 0.1 | 0.0 | -1.3% | -6% | 6 | 22%
CCCSc1nnc(NC(=O)c2cc(=O)c3ccccc3o2)s1 | x | -0.1 | 3.3% | x | 5 | x
COn1c(=O)c(-c2ccc(F)cc2)[n+]([O-])c2ccccc21 | -3.2 | -1.3 | -1.0% | -20% | 16 | 25%[15.4 µM]
O=C(CS(=O)(=O)c1ccc2ccccc2c1)Nc1ccccc1Cl | -1.7 | -0.3 | -3.2% | 9% | -22 | -3%
CNc1cccc(-c2ccccc2C(C)=O)n1 | x | -0.1 | -3.0% | x | 9 | x
CCOc1ccc(CCNC(=O)COC(=O)COc2ccc(C(C)=O)cc2)cc1OCC | x | 0.4 | -2.6% | -4% | 6 | u
O=C(CNC(=O)C12CC3CC(CC(C3)C1)C2)N1CCN(S(=O)(=O)c2cccs2)CC1 | 0.8 | -0.2 | -2.9% | -12% | 8 | 1%
Cc1cc(NC(=O)CSc2nnc(-c3ccoc3C)o2)no1 | -0.8 | -0.1 | 0.7% | 2% | -1 | 8%
COc1ccc(OC)c(/C=C(\C#N)c2nc3ccccc3c(=O)[nH]2)c1 | x | -0.1 | 0.0% | x | 15 | x
O=C(Oc1ccc(F)cc1)c1nc(SCc2ccc(F)cc2)ncc1Cl | x | -0.3 | 0.3% | x | 17 | x

New compounds follow
SMILES | Menin-MLL FL inh | TRPML1 ag | ClpP mod | gsp antagonist | TRPML1 inh | gsp ag
Cc1ccccc1-c1noc(-c2ccc(N3CCN(C)CC3)c([N+](=O)[O-])c2)n1 | x | -0.7 | 1.0% | x | -2 | x
O=C(NCc1ccco1)C1CC(c2c(Cl)cccc2Cl)=NO1 (stereo not drawn) | 0.0 | -0.5 | 1.0% | 11% | 3 | 4%
CCCCOc1ccc(/C=N/Nc2cc(N3CCOCC3)nc(C)n2)cc1 | -1.4 | 0.3 | 0.6% | -3% | 8 | -36%[inhibitor]
Cc1ccnc(NC(=O)c2cccc(S(=O)(=O)Nc3ccc(C)cc3C)c2)c1 | x | 2.2 | x | -24% | 3 | u
Cc1cccc(CN2C(=O)NC(c3ccccc3)(c3ccccc3)C2=O)c1 | -0.3 | -0.1 | -3.5% | -5% | -6 | 3%
COc1cc(C(=O)N2CCCC(c3nc(-c4cccs4)no3)C2)cc(OC)c1OC (stereo not drawn) | 9.7 | -0.1 | -1.1% | -4% | -23 | -33%[inhibitor]
CC1CCN(CC(=O)Nc2ccc3c(c2)OCO3)CC1 | x | -0.6 | x | 7% | -1 | -1%[15.4 µM]
Cn1nnnc1SCC(=O)c1c(N)n(C)c(=O)n(C)c1=O | -1.8 | 0.8 | 0.4% | -9%[15.4 µM] | 53 | u
CCOc1ccc(Cc2n[nH]c(=S)n2Cc2ccccc2)cc1 | -0.3 | -0.3 | -1.3% | -6% | 7 | u
O=C(NCc1ccc(F)cc1)c1c2c(nc3ccccc13)CCN(Cc1ccccc1)C2 | -0.7 | -0.2 | -4.1% | 13% | 3 | u
Cc1ccc(C(=O)Nc2ccc3cn[nH]c3c2)cc1S(=O)(=O)N1CCOCC1 | 1.5 | -0.6 | -6.1% | -15% | -10 | -5%
Cc1cc(C)nc(Sc2c(C)n[nH]c2C)n1 | 2.8 | 4.2 | -0.3% | 12% | 16 | 7%
N#Cc1c(-c2ccc(Br)cc2)cc(-c2cccnc2)nc1N | -7.0 | 0.0 | -3.2% | 14% | -3 | 1%[15.4 µM]
COC(=O)C1=C(C(=O)OC)[C@@H]2Nc3ccccc3[C@@]23C[C@@H](C(=O)OC)N(C(=O)CC(C)C)C3=N1 | -3.3[11.7 µM] | -0.2 | -1.5% | -3% | -9 | -17%
Cc1ccccc1OCCCN1CCOCC1 | -5.3 | x | -0.2% | 6% | x | -36%[inhibitor]
O=C(CCN1C(=O)c2ccccc2S1(=O)=O)Nc1ccc(F)c([N+](=O)[O-])c1 | x | 0.0 | -0.6% | -10% | -9 | -13%[15.4 µM]
COC(=O)c1ccc(CSc2n[nH]c(=S)s2)o1 | 0.1 | -0.6 | -2.3% | -3% | -1 | 0%
Cc1cc(S(=O)(=O)C(CNC(=O)c2ccc(F)c(F)c2)c2cccs2)ccc1F (stereo not drawn) | x | 1.7 | -13% | x | -7 | x
CCOCCCNC(=S)N1CCCN(c2nc3cc(C)cc(C)c3cc2C#N)CC1 | 1.9 | 2.5 | x | x | 7 | 4%[15.4 µM]
O=c1c2c([nH]c3ccccc13)CCCCC2 | 0.2 | -0.7 | x | -10% | -3 | 19%[15.4 µM]
COc1ccccc1CNC(=O)CCNC(=O)Cn1ccc2ccccc2c1=O | -3.4 | -0.5 | -26% | 3% | 0 | 3%
COc1ccc(Cl)cc1NC(=O)COC(=O)CNC(=O)c1ccc([N+](=O)[O-])c(C)c1 | x | -0.6 | -0.5% | -4% | 36 | -10%
Cc1c(O)ccc2cc(S(=O)(=O)c3ccccc3)c(=O)oc12 | u | u | x | -22% | 5 | 16%
COc1ccccc1-c1sc2ccccc2c1-c1ccc(OCCN2CCOCC2)cc1 | x | 0.3 | -24% | -7% | -6 | x
CCC1CN(C(=O)N2CCC(C(=O)NCc3ccc(OC)cc3OC)CC2)c2ccccc2O1 (stereo not drawn) | x | -0.5 | 1.0% | -29% | -12 | 3%

The list continues:
SMILES | Menin-MLL FL inh | TRPML1 ag | ClpP mod | gsp antagonist | TRPML1 inh | gsp ag
CCCCN1C(Nc2ccccc2)=NC[C@@H]1C | x | -0.2 | 0.9% | 10% | 37 | x
O=C1C=CC(=O)N1c1cccc(-c2ccccc2)c1 | 6.3 | 2.3 | 0.0% | 3% | 8 | -5%[15.4 µM]
CCOC(=O)c1[nH]c(CN2CCN(c3ccc(OC)cc3)CC2)c(C(=O)OCC)c1C | -9.0 | 2.2 | x | -13% | -7 | u
COc1ccccc1C(=O)NCc1nnc(SC(C)C(=O)Nc2nccs2)n1C (stereo not drawn) | -8.8 | 0.9 | -2.9% | 8% | -3 | -19%
CCOC(=O)C(C)Sc1nnc(Cn2c(=O)sc3ccccc32)n1-c1ccccc1 (stereo not drawn) | 2.3 | -0.1 | -3.1% | 5% | 84 | u
Cc1ccc(OCc2nc(C#N)c(NCCc3ccccc3)o2)cc1 | x | 2.0 | -0.7% | x | 25 | x
O=C(O)CCN1C(=O)c2ccccc2C1=O | 2.4 | 0.3 | 1.6% | 4% | -5 | u
c1csc(CCNc2ncnc3sc4c(c23)CCC4)c1 | 3.0 | -0.4 | -1.5% | u | -8 | -16%
CCCS(=O)(=O)N1CCC(C(=O)NCCCOCC)CC1 | -3.3 | 0.9 | -2.3% | 4% | 9 | -44%[inhibitor]
Cc1ccc(C(=O)N2CCN(c3ccccc3)CC2)cc1NC(=O)c1ccco1 | x | 0.3 | -1.5% | -1% | -13 | 16%[15.4 µM]

Fetched by structure from the list above (5):
SMILES | Menin-MLL FL inh | TRPML1 ag | ClpP mod | gsp antagonist | TRPML1 inh | gsp ag
Cc1cc(S(=O)(=O)C(CNC(=O)c2ccc(F)c(F)c2)c2cccs2)ccc1F (stereo not drawn) | x | 1.7 | -13% | x | -7 | x
O=[N+]([O-])c1cc(NS(=O)(=O)c2ccc(Cl)nc2)ccc1Cl | x | -0.6 | u | -21% | -1 | -1%
CCOC(=O)c1cccc(NC(=O)CCOc2ccccc2)c1 | 2.5 | -0.5 | x | 0% | -3 | 5%[15.4 µM]
Cc1ccc(C(=O)Nc2ccc3cn[nH]c3c2)cc1S(=O)(=O)N1CCOCC1 | 1.5 | -0.6 | -6.1% | -15% | -10 | -5%
Cc1ccc(OCc2nc(C#N)c(NCCc3ccccc3)o2)cc1 | x | 2.0 | -0.7% | x | 25 | x

Screening data from PubChem.
